Assay outcomes deposited in PubChem BioAssay by Southern Research Specialized Biocontainment Screening Center.
Mtb bLac sens: beta-lactam sensitization of Mtb H37Rv; M. tuberculosis H37Rv growth with meropenem, percent inhibition; hits of this screen are not shown here; inhibition, % at 25 µM; actives 0.27% (n = 330,000); AID 434955;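 active = about 74% or more and at least 40 points above the plate without the antibiotic, then above 30% in a dose series; inconclusive = first-round hits that could not be retested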;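 note: growth measured after seven days incubation then overnight dye step; 0% = bacteria only wells and 100% = bacteria with antibiotic; twin plates without the antibiotic show which effects depend on it; some results filed as inactive read as strong as hits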
Active calls of the source: *; ? = inconclusive.

Compound	Mtb bLac sens
CC(C)c1ccc(CN(C)C(=O)c2ccc(S(=O)(=O)NCc3ccco3)cc2)cc1	1
CCN1CCCC(OC(=O)C(c2ccccc2)c2ccccc2)C1 (stereo not drawn)	1
O=C(Nc1ccc(Br)cc1Cl)c1ccc(OCC2CCCO2)cc1 (stereo not drawn)	1
COc1ccc(NC(=O)COC(=O)C2CC2)cc1S(=O)(=O)N1CCCCC1	19
CC(C)[C@H](NC(=O)c1ccc([N+](=O)[O-])cc1Cl)C(=O)N1CCN(C/C=C/c2ccccc2)CC1	-7
CSc1cccc(NC(=O)C2CCCN(S(=O)(=O)c3cccs3)C2)c1 (stereo not drawn)	-6
O=C(Cc1ccccc1)Nc1cccc(S(=O)(=O)N2CCCCCC2)c1	-7
O=C(OCC(=O)N1CCN(c2cccc(Cl)c2)CC1)c1ccco1	5
COCCN(CC(=O)Nc1cccc(C)c1C)C(=O)c1oc2ccccc2c1C	-3
CON(C)C(=O)c1ccccc1N(C)C(=O)OC(C)(C)C	-3
CN(Cc1nccn1C)C(=O)C1CCC(=O)N(CCc2ccc(Cl)cc2)C1 (stereo not drawn)	-5
COc1cc(/C=C2\SC(=O)NC2=O)ccc1OCC(=O)N1CCOCC1	-6
c1ccc2c(N3CCOCC3)c3c(nc2c1)CCC3	-7
O=C(NCC(=O)N1CC=C(c2ccccc2)CC1)c1ccc(F)cc1	0
CCOC(=O)C1CCCN(C(=O)c2cc(-c3ccncc3)nc3ccccc23)C1 (stereo not drawn)	4
O=C(CNC(=O)c1ccc(Cl)cc1)OCN1C(=O)c2ccccc2C1=O	-4
CCC[C@@H](CN1CCC[C@H]1CN1C(N)=NC[C@H]1C(C)C)N1C[C@@H](Cc2ccccc2)N(CCCC2CCCC2)C1=N	100
CCCN(CC1CC1)C(=S)NC(=O)c1ccccc1Br	65
O=C1C=C(c2cc(F)ccc2F)C[C@@H](c2ccc(F)cc2)C1	3
CCc1cc(=O)oc2cc(C)cc(OCC(=O)N3CCC(C(=O)O)(c4ccccc4)CC3)c12	-4
COc1ccc(CNC(=O)c2cc(C3CC3)nc3c2cnn3C(C)C)cc1	-2
Cc1cccc(C)c1NC(=O)CNC(=O)C1CCCN(C(=O)c2ccc(Cl)cc2)C1 (stereo not drawn)	1
C=CCC[C@@H](Cc1ccc(F)cc1)C(=O)OC[C@@H](Cc1c[nH]c2ccccc12)NC(=O)[C@@H](CC=C)CC(=O)N[C@H](CO)Cc1ccccc1	-2
CCCCCCCNC(=O)C1(CC2CC(c3ccccc3)=NO2)CCNCC1 (stereo not drawn)	-9
COC(=O)C1CCN(C(=O)COC(=O)/C=C/c2ccc(O)c(OC)c2)CC1	4
CC(Oc1ccc(C#N)cc1)C(=O)N1CC=C(c2ccccc2)CC1 (stereo not drawn)	-4
O=C(NCCN1C(=O)S/C(=C/c2cccnc2)C1=O)c1cccs1	-3
CC(OC(=O)c1cc2ccccc2o1)C(=O)Nc1ccc(N2CCOCC2)cc1 (stereo not drawn)	-1
COc1ccc(NS(=O)(=O)c2cc(NC(=O)COc3ccccc3F)ccc2OC)cc1	-4
CCOC(=O)N1CCC(NCCNC(=O)c2ccc(F)cc2)CC1	0

(list continues)
Compound	Mtb bLac sens
CC1(C2CC2)NC(=O)N(CC(=O)NCC(=O)Nc2ccc(F)c(F)c2F)C1=O (stereo not drawn)	1
COc1ccc(NS(=O)(=O)c2ccc(O)c(C(=O)OCC(=O)N3CCCCC3)c2)cc1	0
CCC(=O)NC(c1ccc(C)cc1)c1cc(Cl)c2cccnc2c1O (stereo not drawn)	5
Cc1ccc(OC(C)C(=O)Nc2ccc(F)cc2)c([N+](=O)[O-])n1 (stereo not drawn)	5
Cc1ccc(NC(=O)CN2C(=O)NC(C)(CC(C)C)C2=O)cc1F (stereo not drawn)	-7
O=C(Cc1ccccc1[N+](=O)[O-])NC1CCN(Cc2ccccc2)CC1	-2
COc1ccc(OC)c(C2C(C(=O)c3ccco3)=C(O)C(=O)N2CCN2CCOCC2)c1 (stereo not drawn)	?
CC1CCC(NC(=O)CCN2C(=O)C3CC=CCC3C2=O)CC1 (stereo not drawn)	-2
CCNC(=S)NNC(=O)c1ccc(S(=O)(=O)NCc2ccco2)cc1	-1
COc1ccc([N+](=O)[O-])cc1NS(=O)(=O)c1cc(C(=O)N2CCN(C)CC2)ccc1OC	-5
CCN[C@H]1CN(CCCOC)S(=O)(=O)c2sc(S(N)(=O)=O)cc21	-7
COC(=O)c1ccc(NC(=O)CCN2C(=O)C3CC=CCC3C2=O)cc1 (stereo not drawn)	2
CCOC(=O)C1=C(C)NC(C)=C(C(=O)OCC)C1C(=O)OCC(=O)N(C)Cc1ccccc1	4
CC(=O)N1CCN(S(=O)(=O)c2cccc(C(=O)NNC(=O)Cn3nc(C)cc3C)c2)CC1	-2
Cc1csc(=O)n1CC(=O)OCc1nnc(-c2ccc(Cl)cc2)o1	-12
Cc1cc(=O)[nH]c2ccc(S(=O)(=O)Nc3ccc(O)cc3)cc12	1
COc1cc(C(=O)NCCc2ccccc2)ccc1OCC(=O)N1CCOCC1	1
C[C@H]1COC(=O)[C@H](Cc2ccc(F)cc2)CC/C=C/C[C@@H](CC(=O)N[C@@H](CO)Cc2ccccc2)C(=O)N1	-4
CCC(=O)c1ccc(OCC(=O)OCC(=O)N(CCC#N)c2ccc3c(c2)OCCO3)cc1	3
CCC(C)CCN1C(N(C)C)=NC[C@@H]1C (stereo partly drawn)	3
C=CCn1c(=O)c2ccccc2n2c(SCC(C)=O)nnc12	-7
Cc1cc(C)cc(-c2nnc(SCC(=O)NC3CC3)o2)c1	68
COc1cc(/C=C2/C(=N)N3N=C(C(C)C)SC3=NC2=O)ccc1OS(=O)(=O)c1ccccc1	-2
O=C(NCCc1ccco1)c1ccc(OCc2cn3ccccc3n2)cc1	0
CN(Cc1ccco1)Cc1ccc(O)c2ncccc12	41
COc1ccc(NS(=O)(=O)c2ccc(C(=O)N3CCN(c4ccc(F)cc4)CC3)cc2)cc1	-2
COc1ccc(C)cc1NC(=O)CCc1ccc(S(=O)(=O)N2CCOCC2)cc1	60
CCCCCCSc1ccc([C@@H]2[C@H]3C(=O)N(CC)C(=O)[C@H]3[C@]3(C(=O)OC)CCCCN23)cc1OC	-6
COc1cc(OC)cc(C(=O)Nc2ccn(C)n2)c1	-3
Cc1cccc(OCCCC(=O)Nc2ccc(Cl)c(S(=O)(=O)N3CCOCC3)c2)c1	3

Next structures
Compound	Mtb bLac sens
O=C1C=C(c2ccoc2)N2CCC[C@H]2C1	-2
COc1cc(OC)c(C(=O)OCC(=O)c2ccc3c(c2)NC(=O)CO3)cc1OC	-4
Cc1cc(C)n2nc(SC(C)C(=O)Nc3ccccc3F)nc2n1 (stereo not drawn)	-7
O=C(CCNS(=O)(=O)c1ccc(OC(F)(F)F)cc1)NC1CC1	-3
C#CCOCCOCCOCCNc1nc(N2CCN(C(=O)[C@H](CCCCN)n3cc([C@@H](N)CO)nn3)CC2)nc(N2CCN(C(=O)[C@H](Cc3cc4ccccc4[nH]3)n3cc([C@@H](N)CO)nn3)CC2)n1	-7
O=C1COc2ccc(C(=O)COC(=O)CCOc3ccccc3)cc2N1	5
O=C(COC(=O)c1cc(=O)c2ccccc2o1)Nc1cc(Cl)ccc1Cl	-1
CC(OC(=O)c1ccc(O)cc1)C(=O)Nc1nc(-c2ccccc2)cs1 (stereo not drawn)	-2
O=C(COC(=O)CNC(=O)c1ccc(Cl)cc1)NC1CCCCCC1	-2
COc1cc(C(=O)Nc2ccccc2N2CCOCC2)ccc1OCC(=O)N1CCOCC1	-7
O=C(CN1C(=O)c2ccccc2S1(=O)=O)Nc1ccc([N+](=O)[O-])cc1	0
C[C@@H]1CN([C@H](C)CO)C(=O)c2cccc(NC(=O)c3ccncc3)c2O[C@@H]1CN(C)Cc1ccc(C(=O)O)cc1	5
CCCn1c(N)c(C(=O)CSc2nnc(N)s2)c(=O)[nH]c1=O	2
COc1ccc(S(=O)(=O)Nc2cc(C)on2)cc1NC(C)=O	-4
CN(C)S(=O)(=O)c1ccc(N2CCCC2)c(C(=O)NNC(=O)COc2cccc(F)c2)c1	4
Cc1ccc(S(=O)(=O)NC(=NC(Cc2ccccc2)C(=O)O)c2ccccc2)cc1 (stereo not drawn)	-4
C[C@H](CO)N1C[C@H](C)[C@@H](CN(C)S(=O)(=O)c2cccs2)Oc2ccc(NS(=O)(=O)c3ccc(F)cc3)cc2C1=O	2
COc1c2ccoc2c(OC[C@@H](OC(C)=O)C(C)(C)O)c2oc(=O)ccc12	2
C=CCSc1nc(N)c(NC(=O)c2ccco2)c(=O)[nH]1	-5
CC1CC(=O)Nc2ccccc2N1C(=O)COc1ccc2ccccc2c1 (stereo not drawn)	-2
COc1cc(/C=C/C(=O)OCC(=O)NC(C)c2ccccc2)cc(OC)c1OC (stereo not drawn)	1
O=C(COC(=O)CCC(=O)c1cccs1)Nc1ccccc1C(F)(F)F	-7
COc1ccc(CCNC(=O)c2ccc(OCc3c(C)noc3C)c(OC)c2)cc1	4
CC(=O)C[C@H](O)CC(=O)[C@H]1OC(=O)[C@@H](C)CCCCc2ccccc21	-3
Cc1nn(CCC(=O)N2CCN(S(=O)(=O)c3ccccc3)CC2)c(C)c1C	0
CCOc1ccc(Oc2ccc(NS(=O)(=O)c3cc(C(=O)O)ccc3Cl)cc2)cc1	-1
COc1cccc(CN(C)C(=O)c2cccc(NC(=O)CC3SC(N4CCCCC4)=NC3=O)c2)c1OC (stereo not drawn)	-10
COc1ccccc1/C=C/C(=O)OCC(=O)N1CCCCC1	2
O=C(CC1SC(N2CCOCC2)=NC1=O)Nc1ccc(Cl)c(C(F)(F)F)c1 (stereo not drawn)	-2
CC(=O)c1cccc(NC(=O)c2ccc(N(C)S(=O)(=O)c3ccc(C)cc3)cc2)c1	78

4 entries from above, reformatted:
> Cc1ccc(NC(=O)CN2C(=O)NC(C)(CC(C)C)C2=O)cc1F (stereo not drawn)
  Mtb bLac sens: -7
> O=C(Cc1ccccc1[N+](=O)[O-])NC1CCN(Cc2ccccc2)CC1
  Mtb bLac sens: -2
> COc1ccc(OC)c(C2C(C(=O)c3ccco3)=C(O)C(=O)N2CCN2CCOCC2)c1 (stereo not drawn)
  Mtb bLac sens: ?
> CC1CCC(NC(=O)CCN2C(=O)C3CC=CCC3C2=O)CC1 (stereo not drawn)
  Mtb bLac sens: -2

Later entries
Compound	Mtb bLac sens
Cc1csc(NC(=O)COc2ccc3c(c2)CCC3)n1	1
Cc1ccc(NC(=O)COC(=O)CCc2c(C)nc3ncnn3c2C)cc1C	-10
COc1cc(/C=C/C(=O)OCC(=O)Nc2ccc3c(c2)OCO3)ccc1O	53
Cn1c(SCC(=O)Nc2nnc(-c3ccccc3)o2)nnc1C1CC1	5
O=C(COc1ccc(/C=N/NC(=O)c2cccnc2)cc1)Nc1ccccc1	?
O=C(COC(=O)/C=C/c1ccccc1)NC(=O)NCc1ccccc1	4
Nc1ncnc2c1ncn2[C@@H]1O[C@H](CNCc2cn(CC(=O)NC3CC3)c3ccccc23)[C@@H](O)[C@H]1O	-2
CCCCN1C(=O)C(=O)N(CC(=O)Nc2cccc(C(C)=O)c2)C1=O	1
COC(=O)[C@]12C(=O)NC[C@H](CN1c1ccc(Cl)c(C)c1)N2C	0
Cc1ccc(CNC(=O)CN2c3cccc4cccc(c34)S2(=O)=O)cc1	1
CCOC(=O)[C@H]1[C@H]2COc3ccccc3[C@@H]2N2C(=O)CN(CC3CCCO3)C(=O)[C@@]12C (stereo partly drawn)	3
Cc1ccc(NC(=O)COC(=O)c2cccnc2Cl)cc1S(=O)(=O)N1CCOCC1	-6
COc1cc(/C=C/C(=O)OCC(=O)NC2CCS(=O)(=O)C2)ccc1OC(F)F (stereo not drawn)	-1
Cc1cc(OCC(=O)OCC(=O)N2CC(C)CC(C)C2)ccc1Cl (stereo not drawn)	11
O=C(c1ccc(NS(=O)(=O)c2cccc(F)c2)cc1)N1CCCC1	?
C[C@H](CO)N1C[C@H](C)[C@@H](CN(C)C(=O)Nc2ccc(C(F)(F)F)cc2)Oc2ccc(NC(=O)Nc3ccc(C(F)(F)F)cc3)cc2C1=O	44
O=C(CCC(=O)N1CCN(c2ccccc2F)CC1)c1ccc(Cl)s1	0
O=C(CSc1nc2nn(-c3ccccc3)c(=O)c-2c2n1CCCCC2)c1ccc(OC(F)F)cc1	2
COc1ccc(N(C)S(=O)(=O)c2cccc(C(=O)Nc3ccc(N4CCOCC4)cc3)c2)cc1	0
COc1ccccc1N(C)S(=O)(=O)c1ccc(C)c(C(=O)NC(C)c2ccccn2)c1 (stereo not drawn)	-1
CC(C)n1nnnc1SCC(=O)N1N=C(c2cccs2)CC1c1cccs1 (stereo not drawn)	4
COCc1cc(C)nc2sc(C(=O)Nc3ccccc3Br)c(N)c12	-6
C=CC[C@@H](CC(=O)N[C@@H](CO)Cc1ccccc1)C(=O)N[C@H](COC(=O)[C@@H](CC=C)CC(=O)OC(C)(C)C)Cc1c[nH]c2ccccc12	5
COc1cc(NS(=O)(=O)c2cc(C(=O)NCCc3ccccn3)ccc2OC)cc(OC)c1	3
O=C(NCc1ccccn1)C1CCN(S(=O)(=O)c2ccccc2F)CC1	-2

Structures shown so far that contain a cyano group:
Compound	Mtb bLac sens
CC(Oc1ccc(C#N)cc1)C(=O)N1CC=C(c2ccccc2)CC1 (stereo not drawn)	-4
CCC(=O)c1ccc(OCC(=O)OCC(=O)N(CCC#N)c2ccc3c(c2)OCCO3)cc1	3

The list is partial; count on the stated rates, not on these rows.
